# Bioassay records (PubChem BioAssay)
# HSD17B inh = qHTS Assay for Inhibitors of HSD17B4, hydroxysteroid (17-beta) dehydrogenase 4; 75,000 tested, 7.6% active; Potency, µM (series often up to 57.1 µM), without a hit: at the highest dose activity change, negative = inhibition, actives largely listed as inhibitors; recombinant HSD17B10, NADH fluorescence kinetic; many of its hits are not listed in these tables; active = well fitted inhibition curve with a large enough effect; inconclusive = small, poorly fitted or top-dose-only effect; inactive = no such curve, though single readings can be large or run the other way;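 note: the protocol describes HADH2 (HSD17B10) and not the HSD17B4 of the title; nearly all actives have a fitted effect of over 70% in size; most hits overshoot -100% by far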
#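 20 nM HADH2, pH 9.0 Tris/Tween; cpd preinc 15 min RT; start w/ 1 mM NAD+ + 90 uM b-hydroxybutyryl-CoA; kinetic fluor ex360/em450 q30s x 4 min; delta last-first.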
# Starred values were filed as active, the others as inactive; ? = inconclusive; [ ] = dose if it differs, or a comment. % is set by controls: 0 for no effect and ±100 for the full control effect; potency is the fitted concentration of half-maximal effect. The list is partial; rates above refer to the full screens.
SMILES,HSD17B inh
O=C(NCc1ccccn1)C1CCC(=O)N1C1CCCC1 (stereo not drawn),6%
COCC(=O)Nc1nnc(-c2cccs2)s1,?
N#Cc1ccccc1Cn1c(=O)n(Cc2ccc(C(=O)NCc3ccco3)cc2)c(=O)c2ccccc21,-14%
O=C(CSc1nnc(-c2cnccn2)n1Cc1ccco1)c1ccc(Cl)cc1,-24%
CCOC(=O)c1ccc(S(=O)(=O)n2c(CN3CCCCC3)nc3ccccc32)cc1,5%
N#Cc1ccc(CN2CCC3(CC2)CCN(C(=O)c2ccco2)CC3)cc1,8%
O=c1cc(N2CCOCC2)oc2c(-c3ccccc3)cccc12,?
COc1ccc(C)cc1NS(=O)(=O)c1ccc(NS(=O)(=O)c2ccc(NC(C)=O)cc2)cc1,3%
C=CCn1c(SCC(=O)Nc2cc3oc4ccccc4c3cc2OC)nnc1-c1cnccn1,-20%
Nc1ccc(S(=O)(=O)c2ccc(NC(=O)c3cccnc3)cc2)cc1,4%[11.4 µM]

# Some of the entries above, reformatted.
Molecule	HSD17B inh
O=C(NCc1ccccn1)C1CCC(=O)N1C1CCCC1 (stereo not drawn)	6%
COCC(=O)Nc1nnc(-c2cccs2)s1	?

# Continued.
SMILES,HSD17B inh
CCOC(=O)c1ccc(S(=O)(=O)N2CCC(C(=O)OCC)CC2)cc1,-2%
O=S(=O)(c1ccc(S(=O)(=O)N2CCN(Cc3ccccc3)CC2)cc1)N1CCOCC1,12%
CCN(CC)C(=O)c1cc(-c2ccccc2OC)on1,?
CCC(C)NC(=O)Cn1cc2c(n1)CCC(C)C2 (stereo not drawn),3%
Oc1ccc(C(=S)N2CCCCC2)cc1Cl,-2%
COc1ccc(Nc2nc(C)cc(C)c2C(N)=O)c(OC)c1,10%
O=c1cc(CN2CCN(c3ccc(F)cc3)CC2)nc2sccn12,-11%
CCOC(=O)N1CCN(S(=O)(=O)c2cc(OCC(N)=O)c(C)cc2Cl)CC1,6%
CCOC(=O)C1=CSC2=NS(=O)(=O)CCN12,6%
CCOc1ccc(NC(=O)CN2C(=O)C3CC=CCC3C2=O)cc1 (stereo not drawn),2%
CCc1nnc(NC(=O)c2ccc(S(=O)(=O)N3CCCCC3C)cc2)s1 (stereo not drawn),-12%
CC1CCCN(C(=O)Cn2c(=O)oc3ccccc32)C1 (stereo not drawn),10%
COC(=O)CSc1nc2cc3c(cc2cc1C)OCCO3,-4%
Cc1cc2cc(C(c3nnnn3Cc3ccco3)N3CCc4ccccc43)c(=O)[nH]c2cc1C (stereo not drawn),?
CCN(CC)C(=O)c1cccc(C)c1,-8%
Cn1c(CCN2CCOCC2)nc2cc(NC(=O)COc3ccccc3)ccc21,?
Brc1cnc(N2CCCC2)nc1N1CCCCC1,-4%
N#Cc1c(N)c(C(=O)c2ccccc2)n2c1CCC2,-9%
NC(N)=NCCC[C@H](NC(=O)CC1(CC(=O)N2CCN(C3c4ccccc4NC(=O)c4ccccc43)CC2)CCCC1)C(=O)NCCn1c(=O)n(-c2ccccc2)n(-c2ccccc2)c1=O (stereo partly drawn),-12%
COC(=O)[C@H](CC(C)C)NC(=O)NC1CCCc2ccccc21 (stereo partly drawn),11%
CCOC(=O)Cn1c(CN(C)Cc2ccccc2)nc2c1c(=O)n(C)c(=O)n2C,-1%
CCOC(=O)c1c(Nc2nc(C)c(C(=O)NC)s2)sc(C)c1C,20µM*
CCC/C=C(\CCC)C(NS(=O)(=O)c1ccc(Cl)cc1)c1ccc(C(=O)OC)cc1 (stereo not drawn),-18%
Cc1nnc(SCC2CCCO2)n1-c1ccccc1 (stereo not drawn),2%
CN(CC(O)COCc1cccs1)C1CCCCC1 (stereo not drawn),4%
O=C(CNC(=O)c1ccc(Br)o1)Nc1cccc(-c2cnc3ccccc3n2)c1,6%
Cc1cc(C)n(CCCNC(=O)c2ccc(S(=O)(=O)NCc3ccco3)cc2)n1,6%
Cc1ccc2cccc(SCC(=O)NCc3ccco3)c2n1,25µM*
CCOC(=O)c1cnc(SC2CC(=O)N(c3ccc(OC)c(OC)c3)C2=O)nc1N (stereo not drawn),-7%
CN(C)c1nc(Oc2ccc(=O)n(C)n2)nc(N2CCOCC2)n1,0%
O=C1Nc2ccc(S(=O)(=O)N3CCCC3C(=O)O)c3cccc1c23 (stereo not drawn),-28%
CCC(Sc1nc(=O)cc(N)n1CCc1ccccc1)C(=O)Nc1cc(C)on1 (stereo not drawn),2%
COc1cc(NC(=O)C2CCCN2S(=O)(=O)c2ccc3c(c2)CCC(=O)N3)cc(OC)c1 (stereo not drawn),-3%
CCOC(=O)C1CCN(c2ncnc3c2oc2ccccc23)CC1,-6%
CCOC(=O)c1ccc(NC(=O)CSc2nnc(COc3ccccc3OC)n2C)cc1,4%
CC(=O)Nc1ccc2c(c1)/C(=C/c1ccc([N+](C)(C)C)cc1)c1ccccc1-2,5%[11.4 µM]
COc1ccc(N2C(=O)CC(N3CCN(c4nc5ccccc5s4)CC3)C2=O)cc1 (stereo not drawn),-3%
Cc1nnc(SCC(=O)NCc2ccccc2)s1,4%
CCS(=O)(=O)n1nc(NCc2cccc(OC)c2)nc1NCc1cccc(OC)c1,-1%
CS[C@]12C(=O)C[C@]3(C)[C@@H](CC[C@@]3(O)C(=O)CO)[C@@H]1CCC1=CC(=O)CC[C@]12C,-2%[11.4 µM]
CCCc1nnc(NC(=O)CN2C(=O)c3ccccc3S2(=O)=O)s1,-4%
CC1=CC2=NC(=O)CC(C)(C(=O)N(CC(=O)NC(C)(C)C)C3CCCC3)N2C=C1 (stereo not drawn),25µM*
C=CC(C1=CC(=O)C(OC)=CC1=O)c1ccc(OC)cc1 (stereo not drawn),-19%
Cc1nc(NC(=O)CSc2nnnn2Cc2ccccc2)sc1C,-1%
Cc1cc(/C=N/n2cnnc2)c(C)n1-c1ccc(C(=O)O)cc1,-2%
O=C(CN1CCOCC1)N(c1ccccc1)c1ccc2ccccc2c1,-9%
O=C(Cc1ccc(-n2cnnn2)cc1)NC12CC3CC(CC(C3)C1)C2,-4%
Cc1nnc2sc(-c3cc4ccccc4o3)nn12,-2%
CCOC(=O)CSc1nnc(CNC(=O)c2ccc(OC)cc2)n1Cc1ccccc1,7%
CCn1c2ccccc2c2cc(/C=N/n3cnnc3)ccc21,25µM*

# (cont.)
SMILES,HSD17B inh
CCCC(=O)NCCCc1nc2ccccc2[nH]1,-21%
CCOc1cc(C2NC(=O)NC(C)=C2C(=O)OCc2ccccc2)ccc1O (stereo not drawn),-16%
CC(C)Sc1nnc(NC(=O)C2CC2)s1,-6%
Cc1c(CN(C)C)c2c(n1C)C(=O)c1ccc(Br)cc1-2,-5%
COc1ccccc1C1CC(=O)NC(C)=C1C(=O)OCC(C)C (stereo not drawn),-6%
Cc1cccn2c(=O)c3cc(C(=O)N4CCc5ccccc5C4)n(C)c3nc12,3.2µM*
O=C(CCn1[nH]c(=O)c2ccccc2c1=O)NCCO,4%
CCOC(=O)Cc1csc(NC(=O)CSc2nnc(Cc3csc(N)n3)n2C)n1,-4%
Clc1ccccc1-c1nc(NCc2cccs2)c2ccccc2n1,-25%
CCc1c(C)c2nncn2[nH]c1=O,6%
CCOC(=O)C1CCCN(CC(=O)NC2=Nc3ccccc3N=C(C)C2c2ccccc2)C1 (stereo not drawn),-3%
CCn1c(SCC(=O)N2CCN(c3ccccc3)CC2)nnc1-c1ccoc1C,9%
N[C@H]1CCN(O)C1=O,-2%
O=C(CN1CCN(c2ccc(Cl)cc2)CC1)Nc1cccc(F)c1,-7%
COc1ccc(-c2nnc(SCc3cc(C)cc(C)c3)o2)cc1,5%
O=C(COC(=O)c1ccc2c(c1)OCCO2)NCCC1=CCCCC1,-4%
C=C(C)Cn1c(=O)c(NC(=O)c2ccccc2)c2n(c1=S)CCC2,0%
CC1=CCC(C(=O)O)C(C(=O)O)C1 (stereo not drawn),12%
O=C(CN1C(=O)CSC1=O)NCc1ccccc1,13%
CCOC(=O)c1cnn(-c2ncnc3sc(C)c(C)c23)c1N,3%
CCOC(=O)c1cnc(-n2cc(C)cn2)nc1NCc1ccc2c(c1)OCO2,-2%
O=C(Nc1ccc(Cc2ccncc2)cc1)c1ccco1,16%
CC(C)c1ccc2c(c1)CCC1C(C)(C(N)=O)CCCC21C (stereo not drawn),-2%
O=C(CSc1nnc(-c2cccs2)o1)OC1CCCCC1,18%
COCc1cc(=O)n2c(-c3ccc(C)cc3)n[nH]c2n1,?
CCn1c(N2CCC(Cc3ccccc3)CC2)nc2c1c(=O)[nH]c(=O)n2C,-3%
Cc1ccc2c(c1)nnn2C1CCN(S(=O)(=O)c2ccc(C(=O)N(C)C)cc2)CC1,7%
Cc1ccc(OC(=O)C(F)(F)F)c2c1NCCC2,-16%
CCOc1ccc(Cl)cc1S(=O)(=O)n1cnc2ccccc21,-3%
CCOc1ccccc1NC(=O)c1ccccc1NS(C)(=O)=O,?
O=C(c1ccc(C(F)(F)F)cc1)N1CCCCC1,-2%
Cc1nc2ccc(Cl)cc2nc(C)/c1=N\O,?
O=C(NCc1ccccc1)C1CCN(S(=O)(=O)N2CCOCC2)CC1,4%
Cc1noc(C)c1C(=O)N1CCC2(CC1)CN(c1ccccn1)C2,?
CCOC(=O)N1CCC(n2c(SCC(=O)NCc3ccco3)nc3ccsc3c2=O)CC1,-4%
CCCCN1C(=O)NC(NC(C)=O)(C(F)(F)F)C1=O (stereo not drawn),10%
CCN(CC)CCCOc1nc(C)nc2c1oc1ccccc12,-5%
COCCNC(=O)COC(=O)CSCc1nc2ccccc2s1,-11%
O=C(c1cc(-c2ccncc2)nc2ccccc12)N1CCN(c2ccccn2)CC1,-10%
CCN(C(=O)COC(=O)c1cccnc1SC)C1CCS(=O)(=O)C1 (stereo not drawn),5%
COC(=O)[C@@H](NC(=O)N1CCN(c2cccc(C(F)(F)F)c2)CC1)C(C)C,8%
O=C1NCCCN1Cc1ccc(F)cc1Cl,5%
Cc1cc(C)n(-c2cc(N3CCOCC3)ncn2)n1,-8%
CC1(C)CC(=O)C(Sc2nnc(-c3ccc(O)cc3)n2CC2CCCO2)C(=O)C1 (stereo not drawn),-9%
COc1ncc2nc(C)c(=O)n(CCc3ccccc3)c2n1,-5%
CC1CCCCC1NC(=O)CCn1c(=O)oc2ccccc21 (stereo not drawn),11%
CC(Sc1ccc2c(c1)OCCO2)C(=O)Nc1ccc2c(c1)OCO2 (stereo not drawn),12%
O=S(=O)(c1ccccc1)c1nc(-c2ccco2)oc1N1CCCCCC1,-12%
CN(C(=O)COC(=O)C1c2ccccc2Oc2ccccc21)C1CCS(=O)(=O)C1 (stereo not drawn),-2%
COc1ccc(Nc2ccnc3ccccc23)cc1,3%

# Some of the entries so far, field by field.
COC(=O)[C@@H](NC(=O)N1CCN(c2cccc(C(F)(F)F)c2)CC1)C(C)C
  HSD17B inh: 8%
O=C1NCCCN1Cc1ccc(F)cc1Cl
  HSD17B inh: 5%

# The main list resumes; the four compounds before the break are reprinted first.
SMILES,HSD17B inh
CC(Sc1ccc2c(c1)OCCO2)C(=O)Nc1ccc2c(c1)OCO2 (stereo not drawn),12%
O=S(=O)(c1ccccc1)c1nc(-c2ccco2)oc1N1CCCCCC1,-12%
CN(C(=O)COC(=O)C1c2ccccc2Oc2ccccc21)C1CCS(=O)(=O)C1 (stereo not drawn),-2%
COc1ccc(Nc2ccnc3ccccc23)cc1,3%
CCOC(=O)c1cccc(NS(=O)(=O)c2cnc[nH]2)c1,9%
CCOC(=O)N1CCN(Cc2nc(-c3ccc(OC)cc3)no2)CC1,9%
CCOC(=O)C[C@@H](C(=O)OCC)[C@@H]1CCCCC1=O,-3%[11.4 µM]
Cc1c(N=Cc2ccc[nH]2)c(=O)n(-c2ccccc2)n1C,-5%
CC(C)C(=O)Nc1ccc(NC(=O)c2ccccn2)cn1,-6%
S=c1[nH]nc(Cc2c[nH]c3ccccc23)o1,2%
CCC(=O)N1CCc2cc(S(=O)(=O)NCCC(=O)NC3CCCc4ccccc43)ccc21 (stereo not drawn),0%
Cc1ccc(-n2ncc(C#N)c2/N=C/N2CCN(C)CC2)cc1,12%
Cc1ccc(C)c(S(=O)(=O)Nc2ccc(O)cc2)c1,-7%
COc1ccccc1NC(=O)C1CCN(c2ncccn2)CC1,11%
CCOC(=O)c1ccc(N=c2sc(C(=O)OC)cc(=O)n2C2CC2)cc1,2%
CCOC(=O)Cn1c(CN2CCc3ccccc3C2)nc2c1c(=O)n(C)c(=O)n2C,-27%
O=C(O)CSC1CC(=O)N(c2cccc(Cl)c2)C1=O (stereo not drawn),-10%
CN(C)S(=O)(=O)c1ccc(C(=O)NCc2ccccc2)cc1,-5%
CCOc1ccccc1NC(=O)NC1CC2CCCC(C1)N2Cc1nnnn1CCc1ccccc1 (stereo not drawn),8%
O=C(c1ccco1)N1CCN(C(=O)N2CCOCC2)CC1,10%

# Some values from above.
# Result for O=C(c1ccco1)N1CCN(C(=O)N2CCOCC2)CC1 under HSD17B inh: 10%
# Result for CCCc1nnc(NC(=O)CN2C(=O)c3ccccc3S2(=O)=O)s1 under HSD17B inh: -4%
# Result for O=c1cc(CN2CCN(c3ccc(F)cc3)CC2)nc2sccn12 under HSD17B inh: -11%
# Result for NC(N)=NCCC[C@H](NC(=O)CC1(CC(=O)N2CCN(C3c4ccccc4NC(=O)c4ccccc43)CC2)CCCC1)C(=O)NCCn1c(=O)n(-c2ccccc2)n(-c2ccccc2)c1=O (stereo partly drawn) under HSD17B inh: -12%
# Result for O=C(NCc1ccccc1)C1CCN(S(=O)(=O)N2CCOCC2)CC1 under HSD17B inh: 4%
